Assay outcomes (PubChem)
Six1-Eya2 blk: blocks human Six1 binding to Eya2. AID 651725. 0.56% of 360,000 active. AlphaScreen GST-Six1/His-Eya2 binding, biochemical; hits give low values; control for the full effect not named in the record. Q15475+O00167. activity change, % (test concentration not listed); in the data active = activity change below about -65%; inconclusive = about -30% to -65%; inactive = above about -30%; also: % is scaled to controls: 0 for no effect and ±100 for the full control effect; compound concentration not given in the record
Target sequence (O00167 whole entry, looked up): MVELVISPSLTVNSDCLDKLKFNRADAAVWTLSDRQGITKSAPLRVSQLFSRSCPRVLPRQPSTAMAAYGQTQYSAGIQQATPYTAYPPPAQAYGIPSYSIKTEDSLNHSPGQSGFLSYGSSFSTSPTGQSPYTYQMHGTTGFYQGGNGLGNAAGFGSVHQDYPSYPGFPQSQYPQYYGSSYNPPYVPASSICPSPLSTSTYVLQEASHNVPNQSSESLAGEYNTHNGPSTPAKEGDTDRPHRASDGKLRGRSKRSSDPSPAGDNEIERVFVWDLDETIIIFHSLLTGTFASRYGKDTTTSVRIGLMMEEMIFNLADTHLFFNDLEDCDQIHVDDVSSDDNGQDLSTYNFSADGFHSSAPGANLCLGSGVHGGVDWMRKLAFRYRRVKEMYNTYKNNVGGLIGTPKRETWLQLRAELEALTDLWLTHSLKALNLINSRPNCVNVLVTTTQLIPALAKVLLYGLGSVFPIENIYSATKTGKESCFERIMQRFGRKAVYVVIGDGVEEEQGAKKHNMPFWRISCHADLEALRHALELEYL
Target sequence (Q15475 whole entry, looked up): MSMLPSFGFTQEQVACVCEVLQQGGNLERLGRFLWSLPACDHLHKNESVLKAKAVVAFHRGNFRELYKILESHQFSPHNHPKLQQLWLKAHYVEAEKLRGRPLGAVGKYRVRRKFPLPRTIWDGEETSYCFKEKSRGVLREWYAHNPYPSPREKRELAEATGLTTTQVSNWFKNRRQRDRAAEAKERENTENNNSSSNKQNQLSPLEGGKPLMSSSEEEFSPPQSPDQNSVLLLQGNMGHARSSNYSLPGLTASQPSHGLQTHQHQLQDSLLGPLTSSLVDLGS
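AlphaScreen luminescence read after one hour at 37 °C in darkness. Pin-transferred compounds met GST-Six1 and His-Eya2 protein (5X stock 250 nM/500 nM) plus glutathione donor and Ni-chelate acceptor beads (5X, 50 ug/mL).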
D2 PAM: human D2 receptor positive allosteric modulation; potentiation, % (no concentration beside the values); 0.23% of 360,000 active; P14416; DiscoveRx D2 beta-arrestin cells, luminescence, 90 min; 100% = 57 uM dopamine signal; active = potentiation of 50% or more; inconclusive = 30% to 50%; inactive = 30% or less;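 also: compound concentration not given in the record; tested on top of an EC20 dose of dopamine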
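PathHunter D2 cells, attached overnight at 37 deg C, received compound in DMSO plus dopamine at EC20 (50 nM final) for 90 min at 37 deg C. Beta-arrestin recruitment was read as luminescence after 1 h with detection reagent at ambient temperature.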
TRPML1 ag: activates the human TRPML1 channel. AID 624414. TRPML1-expressing cells, Ca2+ dye fluorescence, FDSS; host cell line not named in the record; reference of the full effect not given here. activation, % (concentration not given with the values). Q9GZU1. 0.12% of 410,000 active; in the data active = activation above about 50%; inconclusive = about 30% to 50%; inactive = below about 30%; also: 0% is about no effect; the text of the record puts the active cut at 80%
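Agonist activity was taken from a 110 s kinetic Ca2+ dye read on the FDSS after pinning compounds onto TRPML1-DL cells. The cells were seeded at 1,500/well with Tet inducer, incubated about 16 h, then dye-loaded at room temperature.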
PINK1 expr mod: modulators of PINK1 expression; PINK1 immunofluorescence, high-content cytometry, 24 h; Potency, µM (titrated, usually from 76.6 µM), for the others: top-dose activation (PINK1 increase), hits mostly activators; 0.2% of 410,000 active; active = well fitted activation curve with a large enough effect; inconclusive = small, poorly fitted or top-dose-only effect; inactive = flat fitted curve, though single readings scatter; cell line not stated here;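 also: potency is read from the fitted curve at half-maximal effect; % of control where 0% means no effect; nearly all actives have a fitted effect of over 65% in size; a mitochondrial uncoupler was the plate control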
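Stable cell line treated 24 h with compounds at 5 concentrations (CCCP controls), then fixed and immunostained for PINK1 plus nuclear and cell stains; PINK1 immunofluorescence quantified by laser-scanning microplate cytometry.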
CtBP-E1A blk: CtBP/E1A binding inhibition; AlphaScreen GST-E1A/His-CtBP binding, 1536-well; hits give low values; control for the full effect not named in the record; 0.49% of 340,000 active; activity change, % (concentration not given with the values); in the data active means activity change below about -65%; inconclusive means about -30% to -65%; inactive means above about -30%; also: % is scaled to controls: 0 for no effect and ±100 for the full control effect
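Protein mix (5X: 125 nM each GST-E1A, His-CtBP) was incubated with pinned compound 2 h at 37 deg C in dark, in 50 mM Tris pH 8.0 buffer with 300 mM NaCl. Glutathione donor and nickel acceptor beads followed; AlphaScreen signal read after 1 h.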
D2 agonist: human D2 receptor agonism in beta-arrestin assay. P14416. activation, % (test concentration not listed). 0.084% of 360,000 active. AID 624465. DiscoveRx PathHunter D2 beta-arrestin, luminescence, 90 min; 100% = 57 uM dopamine signal; in the data active = activation above about 40%; inconclusive = about 15% to 40%; inactive = below about 15%; also: compound concentration not given in the record; the text of the record calls up to 30% inactive
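Agonist mode: compounds alone added to overnight-plated D2 PathHunter cells for 90 min at 37 C, with 57 uM final dopamine (EC100) defining full response. Beta-arrestin recruitment detected by chemiluminescent reagent, read after 1 h at ambient temperature.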
An asterisk follows results filed as active; u = inconclusive; x = no result given; & = joins results of further samples; [ ] = another dose, or the depositor's remark.

Molecule,Six1-Eya2 blk,D2 PAM,TRPML1 ag,PINK1 expr mod,CtBP-E1A blk,D2 agonist
CN(C(=O)Nc1ccc(C(C)(C)C)cc1)C1CCCCC1,5,-2,0.9,0.1%,6,-1.0
C=C(C)CSc1[nH]c(=O)cc(C)c1C#N,10,2,0.0,-1.5%,1,1.0
COC(=O)CCN1CCC(C(N)=O)CC1,-2,-5,2.5,-3.0%,10,-1.2
O=C(Nc1nccs1)c1cccnc1Cl,12,-10,0.7,1.2%,x,-2.4
Nc1c(Cl)cc2c(c1Br)Cc1ccccc1-2,4,0,-0.5,2.2%,6,-3.6
CC(NC(=O)c1cccnc1)C(c1ccccc1)N1CCN(C)CC1 (stereo not given),0,-7,1.9,-2.6%[38.3 µM],5,-1.8
Cc1c2c(n3c(nc4ccccc43)c1C#N)N(CCN1CCOCC1)CC2,-3,2,10,0.2%,-5,0.0
O=C(NNC(=O)C1CC1c1ccccc1)Nc1cccc(Cl)c1 (stereo not given),5,7,0.1,-0.8%[38.3 µM],6,-0.3
O=C(c1ccc(Cl)c(S(=O)(=O)N2CCOCC2)c1)N1CCOCC1,18,-8,0.2,2.3%,-16,4.5
Cc1csc(NC(=O)C(C)Oc2ccc(Cl)cc2C)n1 (stereo not given),17,0,0.2,4.1%,3,-5.2
C#CCn1cc(/C=C2\NC(=O)NC2=O)c2ccccc21,u,-1,1.3,-1.4%,-26,-6.1
Cc1c(C(=O)N2CCOCC2)sc(NC(=O)C(C)C)c1C#N,18,-3,0.2,-0.1%,6,0.6
COc1ccc(CN2CCCC(C(=O)N3CCCC3)C2)cc1 (stereo not given),10,-17,-0.5,x,2,-1.8
CCN1CCN(CC(=O)Nc2c(OC)cccc2OC)CC1,10,-9,-0.9,-0.4%,0,-4.5
COC(=O)C1=CNC=C(C(=O)OC)C1c1ccc(Cl)cc1,11,8,2.0,-1.2%,13,-2.2
O=C(Nc1sccc1C(=O)NCc1ccco1)c1cccnc1,u,-2,1.4,6.0%[38.3 µM],u,-2.4
CCOC(=O)c1[nH]c(C)c(C(=O)c2cc(F)ccc2F)c1C,-1,-11,2.5,u,0,-1.8
CCOc1ccc2nc(SCC(=O)Nc3ncccn3)[nH]c2c1,2,-6,0.9,-0.1%,5,-2.2
NNc1cc(C(=O)O)ccc1Cl,4,-2,1.1,0.4%,7,-0.6
[O-][n+]1c2ccccc2[n+]([O-])c2cc(O)ccc21,u,1,-1.0,0.0%,-14,-5.6
C#CCOCCOCCOCCNc1nc(N2CCN(C(=O)[C@H](CCCCN)n3cc(CC(C)O)nn3)CC2)nc(N2CCN(C(=O)[C@H](Cc3ccc(O)cc3)n3cc(CCO)nn3)CC2)n1 (stereo not given in full),2,-4,0.0,0.4%,0,-0.5
CC1(C)Oc2ccc3ccc(=O)oc3c2C(/C=N/O)C1=O (stereo not given),8,-5,0.2,0.3%,x,-1.4
Cc1nnc(C)n1/N=C/c1ccccn1,3,-6,-0.1,0.6%,1,-0.1
O=C(NC(CO)(CO)CO)c1coc(=O)c(Br)c1,5,5,0.0,-2.7%[38.3 µM],10,1.4
NC(=O)c1sc2nc(N3CCCCC3)c3c(c2c1N)CCCC3,2,-7,-0.4,-1.8%[38.3 µM],-5,2.9
O=C(O)C1CCCCC1C(=O)NCCCN1CCCC1=O (stereo not given),23,3,0.0,-1.7%,0,-3.0
CC(NC(=O)CSc1nc(C2CC2)n(-c2ccccc2)n1)c1ccco1 (stereo not given),2,-10,2.9,1.5%,5,1.5
C[C@H](CO)N1C[C@H](C)[C@@H](CN(C)S(=O)(=O)c2cccs2)Oc2ccc(NC(=O)Nc3ccc(C(F)(F)F)cc3)cc2C1=O,-10,1,0.2,3.7%,-1,5.9
Cc1sc(C(=O)NCc2cccnc2)c2nc(C)n(CC(=O)NCc3cccnc3)c(=O)c12,-1,-5,-0.9,2.6%[38.3 µM],3,-0.8
NC(c1ccccc1)c1csc(Nc2ccc(C(=O)NCCCO)cn2)n1 (stereo not given),-83*,-11,-0.3,0.0%,-85*,-2.3
O=C(COc1ccc(/C=N/NC(=O)c2cccnc2)cc1)Nc1ccccc1,-25,-3,0.0,0.3%,-3,-3.3
Cc1ccc(NC(=S)N(C)C(c2ccccc2)c2ccccc2)cc1C,-3,-7,0.9,0.1%,x,-0.2

Grouped by structure: the entries above with a furan ring, fused or not (2)
Molecule,Six1-Eya2 blk,D2 PAM,TRPML1 ag,PINK1 expr mod,CtBP-E1A blk,D2 agonist
O=C(Nc1sccc1C(=O)NCc1ccco1)c1cccnc1,u,-2,1.4,6.0%[38.3 µM],u,-2.4
CC(NC(=O)CSc1nc(C2CC2)n(-c2ccccc2)n1)c1ccco1 (stereo not given),2,-10,2.9,1.5%,5,1.5

Going on with the list:
Molecule,Six1-Eya2 blk,D2 PAM,TRPML1 ag,PINK1 expr mod,CtBP-E1A blk,D2 agonist
CCCN(CCC)CCCNS(=O)(=O)c1ccc2c(c1)oc(=O)n2C,5,20,-0.6,1.4%,5,2.2
CCC(C)(C)n1nnnc1C(c1ccc(Cl)cc1)N1CCN(C)CC1 (stereo not given),4,-6,29,1.1%,-1,-4.1
O=C(CN1CCN(c2cnn(-c3ccccc3)c(=O)c2Cl)CC1)NC1CCS(=O)(=O)C1 (stereo not given),0,0,0.6,-5.2%,0,-0.3
OC(COc1ccc(Cl)cc1)CN1CCN(c2ccccn2)CC1 (stereo not given),-1,-10,-0.3,2.4%,0,7.7
COc1ccccc1NC(=O)c1cc2ccc(O)cc2o/c1=N\O,-22,-13,-0.7,-1.6%,-24,-3.5
CC(OC(=O)c1nccnc1N)C(=O)Nc1ccc(S(=O)(=O)N2CCCC2)cc1 (stereo not given),6,4,0.2,4.9%,-10,1.0
O=C(CN1CC[n+]2c(-c3cccs3)csc21)c1ccc(Br)cc1,-17,-17,0.4,u,-6,-0.3
O=C(c1ccccc1NS(=O)(=O)c1cccc([N+](=O)[O-])c1)N1CCCC1,1,14,0.8,-1.8%,8,-1.9

Two consecutive compounds already listed:
Molecule,Six1-Eya2 blk,D2 PAM,TRPML1 ag,PINK1 expr mod,CtBP-E1A blk,D2 agonist
COc1ccccc1NC(=O)c1cc2ccc(O)cc2o/c1=N\O,-22,-13,-0.7,-1.6%,-24,-3.5
CC(OC(=O)c1nccnc1N)C(=O)Nc1ccc(S(=O)(=O)N2CCCC2)cc1 (stereo not given),6,4,0.2,4.9%,-10,1.0

(next part)
Molecule,Six1-Eya2 blk,D2 PAM,TRPML1 ag,PINK1 expr mod,CtBP-E1A blk,D2 agonist
COc1ccc(/C=C/C(=O)NCCCN2CCCC2)cc1,9,-10,x,0.3%,5,-5.2
Cc1cc(C)n2ncc(/C(N)=N/OC(=O)Nc3ccc(Cl)cc3)c2n1,0,4,0.0,0.4%,x,2.4
CS/C(N)=N/N=C/c1cc(C)ccc1O,-4,-4,x,1.5%,-20,-1.6
Cc1cc(C(=O)OCC(=O)NC(C)(C)C)c2ccccc2n1,2,-8,0.2,5.0%[38.3 µM],-3,1.9
Cc1cc(S(=O)(=O)N2CCOCC2)c(C)s1,7,-9,0.6,0.6%,x,-2.1
O=C(NCc1ccc2c(c1)OCO2)C1CCC(CNc2c(N3CCCC3)c(=O)c2=O)CC1 (stereo not given),-18,-2,0.0,0.2%,-1,-3.3
Cc1ccc(S(=O)(=O)CCc2nnc(NC(=O)c3ccccn3)s2)cc1,-90*,-9,-0.9,0.5%,-92*,-3.1
COc1ccc(Cl)cc1C(=O)OCC(=O)c1c(N)n(C)c(=O)n(C)c1=O,1,-6,0.3,4.6%,-4,-2.1
Cc1ccc(OCCOC(=O)c2cccc(S(=O)(=O)N3CC(C)OC(C)C3)c2)cc1 (stereo not given),-20,-7,-0.6,3.9%,x,-2.8
CCOC(=O)c1cn(Cc2ccc(Cl)cc2Cl)c2cc(C)nn2c1=O,-10,10,0.5,1.1%,4,-0.2
CC(C)c1ccc(C2c3[nH]c4ccccc4c3C[C@H]3C(=O)N(c4ccccc4C(=O)N4CCC(C(=O)O)CC4)C(=O)N23)cc1 (stereo not given in full),-11,-6,x,-0.3%,-3,4.6
COc1cccc(OC)c1C(=O)NC(=S)NCc1ccccc1,3,-10,-0.2,0.5%,0,-1.3
COC(=O)C1C(=O)C2=C(CC1C)NC(=O)CC2c1ccc(F)cc1 (stereo not given),15,16,-0.8,0.1%,-1,-6.2
c1csc(CSc2nc3ccccc3s2)c1,59,7,2.2,x,-9,-1.0
COc1ccc(C(C(=O)NC2CCCCC2)N(Cc2ccco2)C(=O)CNC(=O)c2ccco2)cc1 (stereo not given),-2,8,-0.2,7.4%,9,-0.5
O=C(Nc1ccc(O)cc1)/C(=C\C=C\c1ccccc1)NC(=O)c1ccccc1,-10,-14,0.1,0.9%,-12,-1.4
CCOc1ncccc1C(=O)OCC(=O)N1CCC(C)CC1,3,-19,1.3,-0.3%,-20,3.7
COc1ccccc1N1C(=O)N(CC(=O)C(C)(C)C)c2ccccc2S1(=O)=O,-18,-4,-0.7,-0.7%&1.0%,3,-5.0
Clc1cc(NCc2ccccc2)ncn1,-7,-14,-0.5,0.9%,3,-1.2
CN(CC(=O)Nc1c(Cl)cccc1Cl)C(=O)c1cccc(S(=O)(=O)NCc2ccccc2)c1,-5,-14,0.6,0.5%,1,-4.3
CC1CCCN(CCOCCOc2ccc(Cl)cc2Br)C1 (stereo not given),18,-6,u,-4.1%[38.3 µM],32,-3.7
Cc1ccc(OCCCCn2cnc3ccccc32)cc1,1,-23,0.1&3.3,3.5%&7.9%,-3,-1.6
COc1ccc(OC)c(NC(=O)CN(c2ccc(C(C)C)cc2)S(=O)(=O)c2c(C)noc2C)c1,-11,-4,1.7,0.1%,2,1.5
COc1cccc(Nc2cc(C)nc3ccccc23)c1,-6,-2,-1.0,1.3%,-4,-2.0
Cc1ccc(S(=O)(=O)NCc2cccnc2)cc1C(=O)N1CCCC1,-6,-3,-1.0,0.1%,8,-1.4
N#Cc1cccnc1Nc1cccc(Cl)c1,1,-5,-0.6,-2.8%,21,0.8
COc1ccc(CCNC(=O)CSc2ccc(NC(C)=O)cc2)cc1OC,4,-3,0.3,-1.5%,5,-2.2
COc1ccc(N2CCN(C(=O)CSc3ncnc4c3cnn4-c3ccc(OC)cc3)CC2)cc1,0,-5,-0.2,0.8%,-3,-3.6
COc1ccc(-n2c(SCC(=O)Nc3ccc([N+](=O)[O-])cc3OC)nc3ccccc32)cc1,-9,-1,-0.3,4.8%,0,-2.0
C/C=C1\NC(=O)[C@H](C)NC(=O)[C@@H](NC(=O)[C@H](Cc2ccc(O)cc2)NC(=O)[C@@H](NC(=O)/C(C)=C/C)C(C)C)[C@@H](C)OC(=O)[C@H](CC(C)C)NC(=O)[C@@H](CCC(=O)O)NC1=O,-22,-9,-0.5,-0.8%,-13,-5.5
COc1ccc2[nH]c3c(c2c1)CCN1C(=O)C(CC(=O)NCCc2ccccn2)C[C@H](C(=O)N2CCCCC2)[C@@]31CCc1ccccc1 (stereo not given in full),-9,x,0.2,0.3%,-9,-3.7
